GLA inh pH 4.5 – alpha-galactosidase A (human) inhibition, pH 4.5; P06280; purified enzyme, 4-MU-alpha-Gal fluorescence, pH 4.5; activity change, negative = inhibition, % at 105 µM; 230,000 tested, under 10 active; AID 1467; inconclusive = small, poorly fitted or top-dose-only inhibition, or a rising curve; inactive = flat fitted curve, though single readings scatter; no compound was filed as active;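 further: 0% = full activity with enzyme and -100% = basal without enzyme; dose as in the result columns while the protocol names 77 µM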
miR-21 reporter – miR-21 reporter, rising signal; HeLa miR-21 FLuc reporter, luciferase, 48 h; Potency, µM (top dose mostly 38.3 µM), for the others: at the top dose reporter change, positive = more light; 340,000 tested, under 10 active; AID 2288; active = well fitted rising curve with a large enough effect; inconclusive = small, poorly fitted or top-dose-only effect; inactive = no such curve, though single readings can be large or run the other way;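 further: % of control where 0% means no effect; miR-21 action dims this reporter so a rising signal means less miR-21 action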
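HeLa cells endogenously expressing miR-21, stably carrying CMV-driven firefly luciferase with a downstream miR-21 binding site, 2000 cells/well. Titrations up to approximately 40 uM, 48 hours; luciferase luminescence read.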
Rango complex inh – prevents formation of the Rango-importin beta complex; Potency, µM (doses to about 92.2 µM), inactives show top-dose inhibition of complex formation; Rango CFP/YFP FRET sensor + importin beta, 45 min; 0.031% of 340,000 active; AID 540263; Q14974; active = rising FRET ratio curve, often small or poorly fitted; inconclusive = mostly compound fluorescence or quenching in the first reads; inactive = flat curves in all reads;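 further: potency means the concentration at half of the fitted maximal effect; 0% = DMSO wells and 100% = buffer wells lacking importin beta; nearly all actives have a fitted effect of over 15% in size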
Target sequence (Q14974 whole entry, looked up): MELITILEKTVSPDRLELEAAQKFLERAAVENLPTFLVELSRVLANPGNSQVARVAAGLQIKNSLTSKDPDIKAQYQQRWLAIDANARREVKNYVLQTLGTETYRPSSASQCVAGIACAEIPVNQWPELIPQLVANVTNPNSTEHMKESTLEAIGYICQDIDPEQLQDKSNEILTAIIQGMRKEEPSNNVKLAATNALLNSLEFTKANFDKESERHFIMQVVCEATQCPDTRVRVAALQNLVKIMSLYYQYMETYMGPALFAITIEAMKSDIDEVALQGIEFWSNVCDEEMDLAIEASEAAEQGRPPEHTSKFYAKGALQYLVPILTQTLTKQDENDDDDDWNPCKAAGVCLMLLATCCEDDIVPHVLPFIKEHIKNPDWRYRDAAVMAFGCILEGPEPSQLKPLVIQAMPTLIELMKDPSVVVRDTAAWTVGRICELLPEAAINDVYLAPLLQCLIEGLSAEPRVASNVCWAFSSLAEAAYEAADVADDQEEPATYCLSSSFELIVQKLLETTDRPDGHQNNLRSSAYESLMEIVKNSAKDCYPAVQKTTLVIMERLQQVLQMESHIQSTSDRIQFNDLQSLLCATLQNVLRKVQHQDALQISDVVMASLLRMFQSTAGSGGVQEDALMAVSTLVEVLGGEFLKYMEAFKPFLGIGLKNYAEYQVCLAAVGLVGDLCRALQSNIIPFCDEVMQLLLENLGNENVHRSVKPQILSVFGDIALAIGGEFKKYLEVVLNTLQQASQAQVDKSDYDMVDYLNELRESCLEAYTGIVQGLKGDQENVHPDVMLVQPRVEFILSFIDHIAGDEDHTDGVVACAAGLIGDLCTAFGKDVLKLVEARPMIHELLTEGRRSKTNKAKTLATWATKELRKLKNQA
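FRET biosensor (snurportin 1 IBB flanked by EYFP and cerulean), 50 nM, with compound 5 min, then 0.125 microM importin beta in PBS, 1 mM DTT, 0.02% Tween-20, 0.1% BSA. CFP/YFP ratio read after 45 min at room temperature; pre-read flags interference.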
Rango dissoc inh – inhibitors of RanGTP-induced Rango-importin beta complex dissociation. O95149+P62826. Biochemical FRET Rango-importin beta, RanGTP-induced dissociation. Potency, µM (titrated, usually from 46.1 µM), for inactives: top-dose activity change, negative = inhibition. 0.071% of 340,000 active. AID 540253; active means falling FRET ratio curve, often poorly fitted, with flat reads before Ran was added; inconclusive means other falling curves, or compound fluorescence or quenching; inactive means flat or rising ratio curve;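 further: potency means the concentration at half of the fitted maximal effect; % of control where 0% means no effect; nearly all actives have a fitted effect of over 45% in size; -100% = wells without RanGTP and RCC1; the record marks most hits as doubtful in a second field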
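Rango (0.1 uM)–importin beta (0.25 uM) complex; RanGTP-RCC1 trigger; 45 min RT; CFP/YFP FRET read.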
Active calls of the source: *; ? = inconclusive; / = not tested or not shown; & = joins results of further samples; [ ] = remark or other dose.

SMILES	GLA inh pH 4.5	miR-21 reporter	Rango complex inh	Rango dissoc inh
COc1ccccc1NC(=O)c1ccc(CN2CCOCC2)cc1	0	-7%	0.9%	14%
CN(C)C(CNC(=O)c1cc2ccccc2o1)c1ccccc1 (centres undefined)	/	/	0.2%	23%
COC(=O)c1ccc([C@@H](O)[C@H](C)C(=O)CC(=O)OC(C)(C)C)cc1	/	-6%	0.8%	0%
CC(C)(C)NC(=O)CN(Cc1ccc2c(c1)OCO2)C(=O)CNS(=O)(=O)c1ccccc1	/	-1%	0.3%	-15%
O=C(Nc1cc([N+](=O)[O-])ccc1F)C1CCN(S(=O)(=O)c2cccs2)CC1	/	/	0.0%	10%
CCN1CCN(C(=O)c2ccc3c(c2)N(Cc2ccccc2F)C(=O)c2ccccc2S3(=O)=O)CC1	/	-4%&5%	1.1%	-1%
Cc1nc(N(C)C)c2sc(=S)n(-c3ccccc3)c2n1	-11	-2%	-1.1%	2%
O=C(c1ccsc1)N1CCN(C(=O)c2cccs2)CC1	-9	-9%	-2.2%	-2%
C=CC(=O)N(CCC)C(c1ccccc1)c1ccccc1OC (centres undefined)	/	/	2.6%	1%
COc1ccc2[nH]c(C(=O)Nc3ccc(F)cc3Br)cc2c1	3	-11%	0.3%	1%
C/C(Nc1ccccc1C(F)(F)F)=C1/CCOC1=O	11	3%	3.9%	8%
COc1cccc(CNC(=O)CSc2nnc3c(n2)[nH]c2ccc(C)cc23)c1	/	-1%	-3.8%	6%
O=C1CCCC(=O)N1c1ccc(F)cc1	/	0%	-5.2%	4%
S=C(NCc1ccco1)Nc1ccccc1	7	5%	3.9%	-1%
COc1cccc(CNC(=O)c2cc(S(=O)(=O)N3CCCCC3)c[nH]2)c1	/	0%&-3%	3.7%	2%
CS(=O)(=O)c1ccc(Cl)c(NC(=O)CSc2nnc(-c3cccs3)n2N)c1	/	/	2.5%	1%
COCCN(C(=O)c1csnn1)C(C(=O)NC1CCCC1)c1ccccc1 (centres undefined)	/	0%	5.7%	-6%
O=C(CCN1C(=O)COc2ccccc21)N1CCN(c2ccccc2)CC1	-1	2%	2.8%	-4%
Cn1c(NC(=O)c2ccco2)c(-c2ccc(Cl)cc2)c(=O)c2ccccc21	9	3%	0.6%	5%
Cc1nnc(SCC(=O)Nc2cccc(N)c2)n1-c1ccccc1	/	3%	-0.5%	-2%

Single records (already shown). Order of values: GLA inh pH 4.5 | miR-21 reporter | Rango complex inh | Rango dissoc inh
CC(C)(C)NC(=O)CN(Cc1ccc2c(c1)OCO2)C(=O)CNS(=O)(=O)c1ccccc1 is listed with / | -1% | 0.3% | -15%
Cn1c(NC(=O)c2ccco2)c(-c2ccc(Cl)cc2)c(=O)c2ccccc21 is listed with 9 | 3% | 0.6% | 5%
O=C1CCCC(=O)N1c1ccc(F)cc1 is listed with / | 0% | -5.2% | 4%

Some of the entries so far, with values ahead of the structure:
GLA inh pH 4.5	miR-21 reporter	Rango complex inh	Rango dissoc inh	SMILES
-11	-2%	-1.1%	2%	Cc1nc(N(C)C)c2sc(=S)n(-c3ccccc3)c2n1
-9	-9%	-2.2%	-2%	O=C(c1ccsc1)N1CCN(C(=O)c2cccs2)CC1
/	/	2.6%	1%	C=CC(=O)N(CCC)C(c1ccccc1)c1ccccc1OC (centres undefined)
3	-11%	0.3%	1%	COc1ccc2[nH]c(C(=O)Nc3ccc(F)cc3Br)cc2c1
11	3%	3.9%	8%	C/C(Nc1ccccc1C(F)(F)F)=C1/CCOC1=O

Continued:
SMILES	GLA inh pH 4.5	miR-21 reporter	Rango complex inh	Rango dissoc inh
COc1ccccc1C1CC(c2ccccc2)=NN1S(=O)(=O)c1ccccc1 (centres undefined)	-3	-3%	6.7%	-21%
O=C(Nc1cccnc1)OC1CCCC1	1	-27%	0.0%	1%
O=S(=O)(c1ccc(F)cc1)N1CCN(Cc2ccccc2C(F)(F)F)CC1	-10	-5%	0.7%	-4%
CN(C)C(CNS(=O)(=O)c1ccc(F)cc1)c1cccnc1 (centres undefined)	-3	-1%	2.6%	-4%
CCCC(=O)c1c[nH]c(C(=O)N2CCOCC2)c1	8	0%	2.7%	13%
O=C(Nc1cccc(F)c1)c1c(O)c2ccccc2[nH]c1=O	/	-29%	-5.3%	-2%
CC(NCc1ccccc1)C1COc2ccccc2O1 (centres undefined)	-6	-10%	-2.9%	-9%
C=CCNC(=O)c1onc(CSc2ccc(F)cc2)c1C(=O)NCC=C	/	/	-2.9%	-5%
Cc1cccc(-n2c(C)cc(/C=C3\NC(=O)NC3=O)c2C)c1	-8	9%	-4.5%	-8%
CC(C)CC(C(=O)Nc1oc(-c2ccccc2)c(-c2ccccc2)c1C#N)N1C(=O)c2ccccc2C1=O (centres undefined)	-15	-2%	0.7%	-2%
Cn1nnc2c(NCc3ccco3)nccc21	-17	-1%	-0.8%	-7%
CCn1cc(C(=O)N2CC(C)CC(C)C2)c(=O)c2cc(S(=O)(=O)N3CCOCC3)ccc21 (centres undefined)	2	-5%	2.2%	-17%
CC1Cc2ccccc2N1C(=O)COC(=O)c1ccc(Br)o1 (centres undefined)	-3	-4%	0.9%	-4%
Cn1c(=O)oc2cc(S(=O)(=O)N3CCCC(C(=O)NC4CCCc5ccccc54)C3)ccc21 (centres undefined)	2	?	-2.6%	13%
CC(=O)Nc1ccc(C2(c3ccc(NC(C)=O)cc3)C(=O)Nc3ccccc32)cc1	6[21.1 µM]	-3%	0.4%	-2%
O=C1CN(C(=O)COC(=O)CNC(=O)c2ccccc2)c2ccccc2N1	-8	0%	2.0%	-8%
COCCCNC(=O)CCc1c(C)c2cc3c(C)coc3cc2oc1=O	/	-4%	-6.0%	?
COc1cccc(CCc2nnc(CCC(=O)NC(C)Cc3cccs3)o2)c1 (centres undefined)	-2	1%	1.5%	5%
CCOC(=O)c1ccc(NC(=O)Nc2ccc3c(c2)OCCO3)cc1	-11	-2%	?	0%
O=C(Nc1ccc(Cl)cc1)NN1CCCCCC1	/	/	6.0%	0%
c1ccc(-c2nnc(-c3ccncc3)nc2-c2ccccc2)cc1	6	-12%	3.6%	4%
NS(=O)(=O)c1ccc(Nc2nc3ccccc3nc2NS(=O)(=O)c2cccc([N+](=O)[O-])c2)cc1	-8	3%	-4.1%	-14%
O=C(NCCN1CCN(c2ccccc2)CC1)C1CCN(S(=O)(=O)c2cccc3nsnc23)CC1	3	0%	0.1%	0%
CN(C)C(=O)Cn1c(=O)n(S(=O)(=O)c2ccccc2)c2ccccc21	/	0%	?	-1%
CCOc1cc(C2NC(=O)NC(c3ccccc3)=C2C(=O)c2ccccc2)c(Br)cc1OCC(=O)O (centres undefined)	3	0%	-0.1%	4%
CCOC(=O)N1CCN(C(=O)C2CCCCC2)CC1	8	-5%	0.2%	17%
COc1cccc(NC(=O)c2c([N+](=O)[O-])cnn2C)c1	/	1%	-1.3%	4%
CC1CCCN(C(=O)C2CCN(CC3CC=CCC3)CC2)C1 (centres undefined)	-29	0%	-1.1%	11%
COc1ccc(-c2csc(NC(=O)c3ccccc3F)n2)cc1	/	-35%	-4.0%	9%
Cc1cccc(Nc2nnc(SCC(=O)c3c(N)n(C4CC4)c(=O)[nH]c3=O)s2)c1C	/	/	-1.0%	-2%
C[n+]1cccc(C(=O)NNC(=O)C23CC4CC(CC(C4)C2)C3)c1	-3[21.1 µM]	0%	1.3%	1%
O=C(CSc1cn(Cc2ccccc2)c2ccccc12)NCc1ccc(F)cc1	3	-11%	3.6%	13%
Cc1cc([N+](=O)[O-])nn1CC(=O)N1CCc2ccccc2C1	-10	1%	3.3%	1%
O=C(NC1CCCCC1)c1cc(-c2cccs2)on1	/	-83%	-1.5%	1%
Cc1ccc2sc(N(CCCN(C)C)C(=O)c3ccc(S(=O)(=O)N4CCOCC4)cc3)nc2c1C	/	/	0.5%	32%
CN(C)S(=O)(=O)c1cccc(-c2nnc(SCc3ccc4c(c3)OCCO4)o2)c1	2	-14%	1.8%	2%
Cc1cc(=O)oc2c(C(=O)/C=C\c3cccs3)c(O)ccc12	-16	3%	-3.1%	-17%
CCc1ccc(NC(=O)CSc2nc3ccccc3c(=O)n2CCCC(=O)NCCCN2CCOCC2)cc1	-1	0%	0.5%	0%
CCCCn1nnnc1SCC(=O)c1ccccc1F	-4	-4%	?	-5%
CC(C)C(NC(=O)CN(c1ccc2c(c1)OCCO2)S(=O)(=O)c1ccccc1)C(C)C	/	/	3.6%	17%
CCN(CCO)C1CC(=O)N(c2ccccc2C)C1=O (centres undefined)	5	-19%	-1.8%	-3%
CCCN(C(=O)c1cnccn1)c1c(N)n(Cc2ccccc2)c(=O)[nH]c1=O	/	/	-0.7%	5%
O=C(O)c1cccc(NC(=O)c2ccc(COc3ccc(Cl)cc3)cc2)c1	/	-23%	-1.8%	3%
O=C(CSc1ccccc1)N1CCCC(N2CCN(c3ccccc3)CC2)C1 (centres undefined)	/	4%	-0.2%	8%
COc1cccc(-c2cc(C(=O)N/N=C/c3cccc(OC)c3OC)c3ccccc3n2)c1	/	/	-1.3%	5%
c1ccc(C2Oc3ccccc3C3CC(c4cccs4)=NN32)cc1 (centres undefined)	-1	-60%	?	-1%
COC(=O)c1ccccc1NC(=O)N1CCN(C(=O)c2ccco2)CC1	5	-13%	-2.2%	0%
COc1ccc(-n2c(=S)[nH]c3cc(C(=O)Nc4cc(C(N)=O)ccc4OC)ccc3c2=O)c(OC)c1	/	8%	-1.3%	-7%
CCOC(=O)c1c(NC(=O)COc2ncnc3ccccc23)sc(C)c1C	-3	-2%	?	12%
COc1ccc(-c2noc(CCCCC(=O)N3CCN(c4cc(C)ccc4C)CC3)n2)cc1	/	/	1.4%	7%
COc1cc2c(cc1OC)-c1cc(Nc3ccc(N(C)C)cc3)nc(=O)n1CC2	-1	-38%	?	-23%
O=C(CNC(=O)/C(=C\c1ccc(Br)cc1)NC(=O)c1ccccc1)OCc1ccccc1	-8	-5%	7.6%	20%
O=C(C1CCCN(S(=O)(=O)c2ccccc2)C1)N1CCN(c2ncccn2)CC1 (centres undefined)	-3	-1%	0.7%	-4%
N#C/C(=C\c1ccco1)Sc1nc2ccccc2s1	-9	-29%	1.6%	13%
Cc1noc(C(=O)Nc2ccc(F)cc2F)c1Cl	/	-24%	?	-12%
CCOC(=O)C1CCN(CC(=O)c2c(C)n(C)c3ccc(OC)cc23)CC1	/	-5%	-5.6%	-12%
CCOc1ccc(OCCNC(=O)c2oc3ccccc3c2COC)cc1	/	/	-0.2%	1%
O=C(c1ccccn1)N1CCN(c2ccc(C(F)(F)F)cn2)CC1	0	-9%	3.6%	5%
Cc1ccccc1NC(=O)CCN1CCN(C/C=C/c2ccccc2)CC1	6	0%	-2.3%	-3%
CSc1nc2ccccc2n1C(=O)NC1CCCCC1	-2	-23%	-1.7%	13%
(list continues)
SMILES	GLA inh pH 4.5	miR-21 reporter	Rango complex inh	Rango dissoc inh
COc1cccc(-n2nnc3c(=O)n(CC(=O)NC4CCCC4)cnc32)c1	2	0%	-1.5%	-3%
O=C(/C=C/c1ccco1)NC(=S)NNC(=O)c1ccco1	-5	-14%	0.5%	-14%
Cc1nc2scc(C)n2c(=O)c1S(=O)(=O)N1CCN(c2ccc(F)cc2)CC1	/	1%	-0.1%	1%
O=C1CSC(c2ccccn2)N1c1cccc(Cl)c1 (centres undefined)	-3	-8%	0.4%	0%
O=C(NCc1ccccn1)c1ccc2c(=O)n(CCc3ccccc3)c(=O)[nH]c2c1	20	-4%	5.0%	0%
Cc1cc(-c2nn(-c3ccccc3F)cc2CN2CCC(O)CC2)c(C)s1	/	6%	-0.4%	3%
CCOc1ccc(N(CC(=O)NCC2CCCO2)S(=O)(=O)c2ccc(SC)cc2)cc1 (centres undefined)	1	7%	4.5%	-9%
O=c1c2ccccc2oc2ccc(NCCCN3CCOCC3)cc12	/	-43%	?	?
COc1cc(/C=C(/NC(=O)c2ccccc2)C(=O)Nc2ccccc2)c([N+](=O)[O-])cc1OC	-6	-13%	-0.6%	16%
CC(=O)N=c1cccc(NC(C)=O)n1O	-3	-6%	3.0%	-17%
COc1ccc(C(=O)N2CCN(C(C)=O)CC2)cc1S(=O)(=O)N1CCOCC1	2	0%	2.1%	-12%
Cc1ccc(N2CC(C(=O)N3CCc4ccccc43)CC2=O)cc1 (centres undefined)	-6	0%	-1.2%	-5%

Some of the compounds tested; rates above refer to the full screens.
